Source: PubChem BioAssay
A1 inhib: inhibitors of A1 | caspase activation, % (concentration not given with the values) | MEF A1-2A-BIM cells, caspase-Glo luminescence, 3 h; percent of clofoctol signal, DMSO as zero | 21,000 tested, 0.51% active;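 active means most replicate scores above 10, or exactly half above 10 with mean activity above 10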;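 further: effector caspase 3 and 7 activity cleaving a DEVD luciferin substrate; 50 nL library stock added to about 30 µL; numbers are from one replicate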
BJeLR viab HTS: lowers viability of BJeLR cells. BJeLR fibroblasts viability, CellTiterGlo ATP luminescence, 48 h; HRASV12, hTERT and SV40 LT/ST transformed. viability loss activity score, % (concentration not given with the values). 30,000 tested, 0.64% active; in the data active means viability loss activity score above about 50%; about a fifth of its hits are not listed in these tables;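 further: higher score means fewer live cells and less ATP luminescence; stock transfer was 50 or 100 nL into about 30 µL; 0% = vehicle wells and 100% = a reference killing control; one replicate is shown; the record names a cut of 85%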
Numbers without * were called inactive; · = not tested or not shown. These rows are one share of the data, so the mix of outcomes need not match the whole.

SMILES	A1 inhib	BJeLR viab HTS
COc1ccc(NC(=O)Nc2ccc3c(c2)C(=O)N([C@H](C)CO)C[C@@H](C)[C@@H](CN(C)C(=O)Nc2ccc(OC)cc2)O3)cc1	-0.8	-2.0
C[C@@H]1CN([C@H](C)CO)C(=O)c2cc(NC(=O)Cc3ccccc3)ccc2O[C@H]1CN(C)C(=O)Nc1ccc2c(c1)OCO2	-0.8	1.0
COc1cc(/C=C2\NC(=S)N(C)C2=O)ccc1OCc1ccccc1Cl	·	-5.2
CC(C)NC(=O)N(C)C[C@H]1Oc2ccc(NS(=O)(=O)c3ccc(F)cc3)cc2C(=O)N([C@@H](C)CO)C[C@@H]1C	0.2	-5.3
C[C@H](CO)N1C[C@H](C)[C@H](CN(C)C(=O)NC2CCCCC2)Oc2c(NC(=O)Nc3cccc4ccccc34)cccc2C1=O	·	-5.0
O=C(COC(=O)c1ccccc1NCc1ccco1)c1ccc(Cl)cc1	-1.4	3.3
CC1(OC(=O)/C=C/c2ccccc2)CC(O)C2C=COC(OC3OC(CO)C(O)C(O)C3O)C21 (stereo not drawn)	-0.5	-4.1
C[C@@H]1CN([C@@H](C)CO)C(=O)c2cccc(NC(=O)c3ccc(-c4nccs4)cc3)c2O[C@@H]1CN(C)C(=O)Nc1ccccc1	·	0.4
C[C@@H]1CN([C@@H](C)CO)C(=O)c2cc(NC(=O)Nc3ccccc3)ccc2O[C@@H]1CN(C)C(=O)NC1CCCCC1	-0.3	1.6
C[C@H](CO)N1C[C@H](C)[C@@H](CN(C)Cc2ccc3c(c2)OCO3)Oc2ccc(NS(=O)(=O)c3ccc(Cl)cc3)cc2C1=O	0.8	1.3
CCOC(=O)/C(C#N)=C1/C=CN(C)C=N1	0.0	-7.5
COc1ccc(S(=O)(=O)Nc2ccc3c(c2)C(=O)N([C@H](C)CO)C[C@@H](C)[C@@H](CN(C)Cc2ccncc2)O3)cc1	-0.5	-5.1
N#Cc1ccc(N2CCCN(C(=S)NC3CCCC3)CC2)nc1	-0.5	12
Cc1noc(C)c1S(=O)(=O)NCC1COc2ccccc2O1 (stereo not drawn)	-0.4	5.7
Cn1cnc(S(=O)(=O)NCC2CCN(C(=O)OC(C)(C)C)CC2)c1	·	-3.2
COc1ccc(NC(=O)N(C)C[C@H]2Oc3ccc(NS(=O)(=O)c4ccc(Cl)cc4)cc3C(=O)N([C@@H](C)CO)C[C@H]2C)cc1	-0.6	-0.5
C[C@@H]1CN([C@H](C)CO)C(=O)c2cc(NC(=O)CCCN(C)C)ccc2O[C@@H]1CN(C)Cc1ccc(-c2ccccc2)cc1	-0.4	1.5
COc1ccc(NC(=O)N(C)C[C@@H]2Oc3ccc(NC(=O)Nc4c(C)noc4C)cc3C(=O)N([C@@H](C)CO)C[C@@H]2C)cc1	0.7	-3.8
O=C(c1ccc(CSc2cccc3cccnc23)cc1)N1CCOCC1	-6.6	23
CC1(C)CC(=O)C(C2C3=C(CC(C)(C)CC3=O)Oc3ccc(Br)cc32)C(=O)C1 (stereo not drawn)	0.5	-1.2
Cc1ccc(NC(=O)CSc2nc3ccccc3c(=O)n2CC2COc3ccccc3O2)cc1 (stereo not drawn)	-0.7	-0.9
Nc1c(C(=O)Nc2ccccc2)sc2nc3c(cc12)CCCCC3	4.9	17
NS(=O)(=O)c1ccc(NC(=S)N2CCC(Cc3ccccc3)CC2)cc1	·	2.1
Cc1noc(C)c1NC(=O)N(C)C[C@@H]1Oc2c(NS(=O)(=O)c3cn(C)cn3)cccc2C(=O)N([C@H](C)CO)C[C@H]1C	·	-0.1
C1=C(c2cccs2)CC(c2cccs2)=NN=C1c1cccs1	0.2	-2.5

More results follow.
SMILES	A1 inhib	BJeLR viab HTS
COc1ccc(CN(C)C[C@H]2Oc3ccc(NC(=O)Nc4ccc5c(c4)OCO5)cc3C(=O)N([C@@H](C)CO)C[C@H]2C)cc1	0.2	-3.4
COc1cc(O)c2c(=O)oc3c(O)c(OC)cc(C)c3c2c1	0.2	9.6
CCOc1ccc(N2C(=O)CCC2=O)cc1	0.4	3.1
C[C@@H]1CN([C@H](C)CO)C(=O)c2cc(NS(=O)(=O)c3ccccc3)ccc2O[C@@H]1CN(C)Cc1ccc(C(=O)Nc2ccccc2N)cc1	·	3.3
C[C@H](CO)N1C[C@H](C)[C@H](CN(C)Cc2ccc(-c3ccccc3)cc2)Oc2c(NC(=O)c3ccc(-c4nccs4)cc3)cccc2C1=O	·	-5.4
C[C@H]1CN([C@@H](C)CO)C(=O)c2cccc(NC(=O)C3CCOCC3)c2O[C@H]1CN(C)C(=O)NC1CCCCC1	·	-0.9
C[C@H]1CN([C@@H](C)CO)C(=O)c2cccc(NS(=O)(=O)c3ccccc3)c2O[C@@H]1CN(C)Cc1ccccc1	·	-2.6
CC(C)c1nc2cc3sc(C(C)C)nc3cc2s1	·	-4.1
C[C@@H]1CN([C@H](C)CO)C(=O)c2cc(NS(C)(=O)=O)ccc2O[C@H]1CN(C)Cc1ccccc1	0.0	-3.8
Cc1cc2ccccc2c(=O)n1CC(=O)N1CCCCC1	·	-0.8
CCc1ccc(NC(=O)Cc2cccs2)cc1	-4.6	0.2
COc1ccc2ccccc2c1C=C1C(=O)OC2(CCCC2)OC1=O	·	8.0
CCOc1ccc(C(=O)N2CCCCC2)cc1	0.1	0.8
C[C@@H]1CN([C@H](C)CO)C(=O)c2cccc(NC(=O)Nc3ccc(F)cc3)c2O[C@H]1CN(C)C(=O)Nc1ccc(F)cc1	·	-0.8
CC(C)(C)NC(=O)NCc1ccncc1	0.0	-0.6
COc1ccc(S(=O)(=O)N(C)C[C@@H]2Oc3c(NC(=O)Nc4cccc5ccccc45)cccc3C(=O)N([C@H](C)CO)C[C@H]2C)cc1	·	-3.8
C[C@H](CO)N1C[C@H](C)[C@H](CN(C)C(=O)Nc2cccc3ccccc23)Oc2c(NC(=O)Nc3ccc(F)cc3)cccc2C1=O	·	-10
CC(=O)Nc1ccc(S(=O)(=O)NCc2ccc(C(=O)NC3CCCC(C)C3C)cc2)cc1 (stereo not drawn)	·	0.5
C[C@H]1CN([C@@H](C)CO)C(=O)c2cccc(NS(=O)(=O)c3ccccc3)c2O[C@H]1CN(C)C(=O)Nc1cccc2ccccc12	·	2.7
CSc1cccc(NS(=O)(=O)c2ccc3c(c2)n(C)c(=O)c(=O)n3C)c1	·	-2.9
Cc1ccc(C(=O)N2CCN(C(=O)c3ccccc3)C2)cc1	·	-1.1
c1ccc(Nc2ncnc3sc4c(c23)CCCC4)cc1	2.8	1.8
C[C@@H]1CN([C@@H](C)CO)C(=O)c2cccc(NC(=O)c3ccncc3)c2O[C@@H]1CN(C)C	·	0.8
C[C@@H]1CN([C@@H](C)CO)C(=O)c2cc(NC(=O)CCN3CCOCC3)ccc2O[C@@H]1CN(C)C(=O)Nc1ccc(C(F)(F)F)cc1	0.2	-3.1
CC(C)NC(=O)Nc1ccc2c(c1)C(=O)N([C@H](C)CO)C[C@@H](C)[C@@H](CN(C)C(=O)Nc1ccc(C(F)(F)F)cc1)O2	-0.8	2.3

(further entries)
SMILES	A1 inhib	BJeLR viab HTS
C[C@H]1CN([C@@H](C)CO)C(=O)c2cccc(NC(=O)c3ccncc3)c2O[C@H]1CN(C)C(=O)Nc1cccc2ccccc12	·	-1.3
CC(C)(C)c1ccc(S(=O)(=O)Nc2ccc3[nH]c(=O)[nH]c3c2)cc1	·	5.1
C=CCN(CC=C)C(=S)Nc1ccc2nsnc2c1	·	-3.9
C[C@@H]1CN([C@@H](C)CO)C(=O)c2cc(NC(=O)Nc3cccc4ccccc34)ccc2O[C@@H]1CN(C)Cc1ccc(C(=O)O)cc1	0.8	-0.7
CN(C(=O)c1cccc(N2C(=O)C3C4C=CC(C4)C3C2=O)c1)C1CCCCC1 (stereo not drawn)	0.3	-1.5
C[C@H](CO)N1C[C@H](C)[C@H](CN(C)C)Oc2ccc(NS(=O)(=O)c3cn(C)cn3)cc2C1=O	-0.7	1.6
C[C@H](CO)N1C[C@H](C)[C@H](CN(C)C(=O)Nc2cccc3ccccc23)Oc2c(NS(C)(=O)=O)cccc2C1=O	·	2.0
c1ccc(CSc2ccc(-c3cccs3)nn2)cc1	-5.3	5.1
COc1ccc(NC(=O)c2nn(C)c3c2COc2ccccc2-3)cc1	-5.6	-4.8
COC(=O)C1=C(C)N(c2ccc(F)cc2)/C(=C/c2ccco2)C1=O	-0.4	0.8
COC(=O)c1csc(C(=O)OC)c1C	0.8	-6.7
CSc1ccccc1NC(=O)CSc1nc2ccc(C)cc2[nH]1	0.5	-2.2
C[C@H](CO)N1C[C@H](C)[C@H](CN(C)Cc2ccc(-c3ccccc3)cc2)Oc2ccc(NC(=O)CCCCCC(=O)Nc3ccccc3N)cc2C1=O	·	-7.6
O=C(Oc1ccc2ccccc2c1)C1c2ccccc2Oc2ccccc21	0.5	1.7
CC(=O)Oc1ccc(C2OC(=O)c3ccccc3N2C(C)=O)cc1 (stereo not drawn)	-1.1	2.6
COCCN1C(=O)c2ccccc2C(C(=O)NCc2ccccc2OC)C1c1ccc(F)cc1 (stereo not drawn)	·	-3.1
CCOC(=O)N1CCN(C(=O)CCS(=O)(=O)c2ccc(Br)s2)CC1	·	-2.9
C[C@@H]1CN([C@H](C)CO)C(=O)c2cccc(NC(=O)Nc3ccccc3)c2O[C@@H]1CN(C)C(=O)Nc1ccc2c(c1)OCO2	·	-2.3
Nc1ncnc2c1ncn2C1OC(CO)[C@H](O)[C@@H]1S (stereo partly drawn)	0.1	-0.4
C[C@H](CO)N1C[C@H](C)[C@H](CN(C)S(=O)(=O)c2ccccc2)Oc2c(NS(=O)(=O)c3ccccc3)cccc2C1=O	·	4.6
CS(=O)(=O)N(Cc1ccccc1)c1ccc(C(=O)NCCSc2ccccn2)cc1	0.9	10
Cc1ccc(NC(=O)c2nc[nH]c2C(=O)N2CCCCC2)c(C(=O)c2ccccc2)c1	0.0	6.9
Cc1ccc(S(=O)(=O)c2ccc(Cl)cc2)cc1S(=O)(=O)N1CCCC1	-1.4	7.7
C[C@H]1CN([C@@H](C)CO)C(=O)c2cc(NS(=O)(=O)c3cn(C)cn3)ccc2O[C@H]1CN(C)S(=O)(=O)c1ccc(F)cc1	0.4	1.3
C[C@H](CO)N1C[C@H](C)[C@@H](CN(C)Cc2ccncc2)Oc2ccc(NC(=O)Nc3ccc(C(F)(F)F)cc3)cc2C1=O	-0.2	3.2

Complete entries, quoted from the list. Order of values: A1 inhib	BJeLR viab HTS
Record of `C[C@H]1CN([C@@H](C)CO)C(=O)c2cccc(NC(=O)C3CCOCC3)c2O[C@H]1CN(C)C(=O)NC1CCCCC1` : ·	-0.9
Record of `C[C@H](CO)N1C[C@H](C)[C@H](CN(C)C(=O)NC2CCCCC2)Oc2c(NC(=O)Nc3cccc4ccccc34)cccc2C1=O` : ·	-5.0

In the list so far, these contain a cyano group.
SMILES	A1 inhib	BJeLR viab HTS
CCOC(=O)/C(C#N)=C1/C=CN(C)C=N1	0.0	-7.5
N#Cc1ccc(N2CCCN(C(=S)NC3CCCC3)CC2)nc1	-0.5	12

Next entries follow.
SMILES	A1 inhib	BJeLR viab HTS
FC(F)(F)c1ccc(-c2nnc(-c3ccccn3)c(-c3ccccn3)n2)nc1	0.1	-4.1
C[C@H]1CN([C@@H](C)CO)C(=O)c2cc(NC(=O)CCC(F)(F)F)ccc2O[C@H]1CN(C)CC1CC1	-0.1	-0.7
CC1CCCC(NC(=O)CCCn2c3ccccc3c3cn[nH]c(=O)c32)C1C (stereo not drawn)	0.1	-4.3
O=C(Nc1nc(-c2ccccc2)cs1)c1ccc(S(=O)(=O)N2CCCCC2)cc1	-0.4	-0.2
COc1ccc(CN(CCN(C)C)c2ncccn2)cc1	0.5	4.6
O=C(CN1C(=O)COc2ccc(Cl)cc21)N1CCCC1	0.9	0.5
C=CCN(c1ccccc1)S(=O)(=O)c1ccc(F)c(C(=O)Nc2ccc(C(C)C)cc2)c1	-0.8	16
CCCNC(=O)c1oc2ccc3c(c2c1C)C(=O)CC(C)(C)O3	-1.7	4.2
C[C@@H]1CN([C@H](C)CO)C(=O)c2cc(NC(=O)C3CCCCC3)ccc2O[C@@H]1CN(C)Cc1ccncc1	-0.5	-0.8
COC(=O)c1ccc(S(=O)(=O)NCCNc2cccc(C(F)(F)F)n2)n1C	·	-0.2
C/S(=N\S(=O)(=O)c1cccc2nsnc12)c1ncc(Cl)cc1C(F)(F)F (stereo not drawn)	0.2	-9.3
COc1ccc(N2C(=O)Cc3ccc(OC)cc3C2=O)cc1	-1.5	-4.6
CC(C)(C)c1ccc(-c2noc(CSc3n[nH]c(=O)n3-c3cccnc3)n2)cc1	-0.3	3.7
C[C@@H]1CN([C@H](C)CO)C(=O)c2cccc(NC(=O)C3CCOCC3)c2O[C@H]1CN(C)Cc1ccc2c(c1)OCO2	·	-0.8
COc1cc(C(=O)OC(Cc2ccccc2)C(F)(F)F)cc(OC)c1OC (stereo not drawn)	-0.4	-2.5
Cc1ccc(SCC(=O)Nc2cc(C)on2)cc1	-0.8	1.0
Cc1cc(Cl)ccc1OCC(=O)Nc1sc2c(c1C#N)CCC2	0.8	2.9
O=C(NCCC1=CCCCC1)c1ccc2c(c1)OCO2	-5.3	7.2

4 of the compounds above, field by field.
Structure: C[C@@H]1CN([C@H](C)CO)C(=O)c2cccc(NC(=O)Nc3ccccc3)c2O[C@@H]1CN(C)C(=O)Nc1ccc2c(c1)OCO2
- A1 inhib: ·
- BJeLR viab HTS: -2.3

Structure: Nc1ncnc2c1ncn2C1OC(CO)[C@H](O)[C@@H]1S (stereo partly drawn)
- A1 inhib: 0.1
- BJeLR viab HTS: -0.4

Structure: C[C@H](CO)N1C[C@H](C)[C@H](CN(C)S(=O)(=O)c2ccccc2)Oc2c(NS(=O)(=O)c3ccccc3)cccc2C1=O
- A1 inhib: ·
- BJeLR viab HTS: 4.6

Structure: CS(=O)(=O)N(Cc1ccccc1)c1ccc(C(=O)NCCSc2ccccn2)cc1
- A1 inhib: 0.9
- BJeLR viab HTS: 10
